# High-throughput results: PubChem, Broad Institute
# Vaccinia stage – Vaccinia orthopox stage-specific inhibition; 0.01% of 89,000 active; activity change (mCherry), % (test concentration not listed); AID 1053133; Vaccinia-infected cells, mCherry/Venus stage reporter fluorescence; stronger effect = lower value; some inactives read as strong as hits;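 active = mCherry past -33% and 40 or more points under the early reporter, replicates agreeing; inconclusive = past -33% without that gap or agreement; tested in A549 cells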;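 also: scaled between vehicle wells and reference inhibitor wells; 23 nL library stock went into each well; one replicate is shown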
# Vaccinia stage Venus – second read-out of Vaccinia stage, no call of its own (marks repeat the call); activity change (Venus), %; measured here: Venus reporter, other viral stage;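 negative = less Venus signal; first of two replicates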
# * marks the source's active call; other numbers are inactive results; u = inconclusive; x = no result given; & = joins results of further samples.
# Results follow in this order: Vaccinia stage | Vaccinia stage Venus
- O=C(C[C@H]1C=C[C@@H](NC(=O)Cc2ccccn2)[C@H](CO)O1)NCCc1ccncc1
 : 2 | 3
- COc1ccccc1NC(=O)N1C[C@@H](O)COC[C@@H]2O[C@@H](CC(=O)NCCc3ccccc3)CC[C@H]21
 : -8 | -8
- O=C(C[C@@H]1CC[C@@H]2[C@H](COC[C@@H](O)CN2C(=O)c2cnccn2)O1)NCc1ccccc1
 : 8 | 6
- O=C(C[C@H]1C=C[C@H](NS(=O)(=O)c2ccc(F)cc2)[C@H](CO)O1)NC1CCC1
 : 2 | 4
- O=C(NC1CCCC1)N1CCCCN2[C@H](CO)[C@@H](c3ccc(-c4ccncc4)cc3)[C@H]2C1
 : 13 | -8
- COc1ccc(NC(=O)N(C)C[C@H]2Oc3c(NC(=O)Nc4ccc(F)cc4)cccc3C(=O)N([C@@H](C)CO)C[C@H]2C)cc1
 : -18 | -16
- C[C@H](CO)N1C[C@H](C)[C@@H](CN(C)Cc2ccc(C(F)(F)F)cc2)Oc2c(NS(=O)(=O)c3ccccc3)cccc2C1=O
 : -13 | -21
- CCC(=O)N1C[C@H](C)[C@H](OC)CN(C)C(=O)c2cc(NC(=O)NC3CCCC3)ccc2OC[C@H]1C
 : 15 | 15
- Cc1ccc(S(=O)(=O)Nc2cccc3c2O[C@H](CN(C)Cc2ccccc2)[C@@H](C)CN([C@@H](C)CO)C3=O)cc1
 : -11 | -15
- CC(C)(C)[C@@H]1C=C(C(=O)NC2CC2)O[C@H](OCc2ccc(CO)cc2)C1
 : 11 | 9
- Cc1noc(C)c1NC(=O)N(C)C[C@H]1Oc2ccc(NC(=O)CCCCCC(=O)Nc3ccccc3N)cc2CC(=O)N([C@H](C)CO)C[C@H]1C
 : 6 | 7
- CO[C@@H]1CC[C@H]2CCN(C)C(=O)C[C@H](c3ccccc3)CN(C)C(=O)c3cc(C#N)ccc3OC[C@H]1O2
 : 10 | 7
- Cc1noc(C)c1NC(=O)NCC[C@@H]1CC[C@@H](NC(=O)Cc2cccnc2)[C@H](CO)O1
 : 2 | 0
- O=C(N[C@H]1CC[C@H](CCn2cc(-c3ccccn3)nn2)O[C@H]1CO)c1ccccc1
 : 9 | 0
- Fc1ccccc1CN1[C@@H]2CNC[C@H]1C2c1ccc(-c2ccncc2)cc1 (stereo partly drawn)
 : 6 | 0
- CCCNC(=O)N1CC2(CCN(S(C)(=O)=O)CC2)c2c(n(C)c3cc(OC)ccc23)[C@H]1CO
 : 16 | 9
- CC(C)C#Cc1cnc2c(c1)C(=O)N([C@H](C)CO)C[C@H](C)[C@@H](CN(C)C(=O)c1ccccn1)O2
 : 29 | 4
- Cc1noc(C)c1NC(=O)N(C)C[C@@H]1OCCCC[C@@H](C)Oc2ccc(NS(=O)(=O)c3cccs3)cc2C(=O)N([C@@H](C)CO)C[C@H]1C
 : 39 | 14
- C[C@H](CO)N1C[C@H](C)[C@@H](CN(C)CC2CCCCC2)OCCCC[C@H](C)Oc2ccc(NS(=O)(=O)c3cn(C)cn3)cc2C1=O
 : 24 | 16
- C[C@H](CO)N1C[C@H](C)[C@H](CN(C)Cc2ccncc2)Oc2cc(-c3cncnc3)ccc2S1(=O)=O
 : 8 | 0
- OC[C@@H]1[C@H](c2ccccc2)C2(CN(CCC(F)(F)F)C2)N1Cc1nccs1
 : 9 | 12
- COc1ccc(S(=O)(=O)Nc2ccc3c(c2)CC(=O)N([C@H](C)CO)C[C@@H](C)[C@H](CN(C)Cc2ccc4c(c2)OCO4)O3)cc1
 : -20 | -19
- O=C(CC1CC1)Nc1ccc2c(c1)[C@H]1C[C@@H](CC(=O)NC3CCCC3)O[C@H](CO)[C@H]1O2
 : 4 | 3
- Cc1ccccc1-c1cnc2c(c1)C(=O)N([C@@H](C)CO)C[C@@H](C)[C@@H](CN(C)CC1CCOCC1)O2
 : -2 | -1
- CC(=O)N(C)C[C@H]1Oc2cc(C#C[C@H](C)O)ccc2S(=O)(=O)N([C@@H](C)CO)C[C@H]1C
 : 10 | 11
- C[C@@H]1CN([C@@H](C)CO)C(=O)c2c(c3ccccc3n2C)-c2ccccc2CO[C@@H]1CN(C)C(=O)Nc1ccnc(N2CCOCC2)c1
 : u | x
- C[C@@H]1CCCCO[C@H](CN(C)C(=O)Nc2ccc(F)cc2)[C@H](C)CN([C@H](C)CO)C(=O)c2cc(N(C)C)ccc2O1
 : 1 | 0
- O=C(C[C@H]1C[C@H]2c3cc(NC(=O)NC4CCCC4)ccc3O[C@H]2[C@H](CO)O1)NCc1ccc2c(c1)OCO2
 : 7 | 11
- COc1ccc2c3c([nH]c2c1)[C@@H](CO)N(C(=O)CN(C)C)CC31CN(C(=O)c2ccncc2)C1
 : 8 | 7
- C[C@H]1CCCCO[C@H](CN(C)S(=O)(=O)c2ccc(F)cc2)[C@@H](C)CN([C@@H](C)CO)C(=O)c2cc(NC(=O)Nc3cccc4ccccc34)ccc2O1
 : 8 | 7

# Single records (already shown). Order of screens: Vaccinia stage, Vaccinia stage Venus
# O=C(C[C@H]1C=C[C@H](NS(=O)(=O)c2ccc(F)cc2)[C@H](CO)O1)NC1CCC1 as listed: 2, 4
# O=C(C[C@@H]1CC[C@@H]2[C@H](COC[C@@H](O)CN2C(=O)c2cnccn2)O1)NCc1ccccc1 as listed: 8, 6
# O=C(C[C@H]1C=C[C@@H](NC(=O)Cc2ccccn2)[C@H](CO)O1)NCCc1ccncc1 as listed: 2, 3
# COc1ccc2c3c([nH]c2c1)[C@@H](CO)N(C(=O)CN(C)C)CC31CN(C(=O)c2ccncc2)C1 as listed: 8, 7

# (further entries)
# Results follow in this order: Vaccinia stage | Vaccinia stage Venus
- CC(C)C#Cc1cnc2c(c1)C(=O)N([C@H](C)CO)C[C@H](C)[C@@H](CN(C)C(=O)Nc1ccccc1)O2
 : 2 | 3
- COc1ccc2c3c([nH]c2c1)[C@H](CO)N(C(C)=O)CC31CN(Cc2cc(-c3ccccc3)on2)C1
 : -33 | -31
- COCC(=O)N1[C@H](CO)[C@@H](c2ccccc2)C12CN(C(=O)Cc1ccccn1)C2
 : -6 | -3
- CO[C@H]1CN(C)C(=O)c2cc(NC(=O)Nc3c(C)noc3C)ccc2OC[C@@H](C)NC[C@H]1C
 : 10 | 8
- CC=Cc1ccc2n(c1=O)C[C@@H]1[C@@H](CO)[C@H](C(=O)N3CCN(C)CC3)N(Cc3ccccc3OC)[C@H]21 (mixture of isomers)
 : 4 | 2
- CC(C)C#Cc1cnc2c(c1)C(=O)N([C@@H](C)CO)C[C@@H](C)[C@@H](CN(C)C(=O)c1ccccc1F)O2
 : 3 | 1
- Cc1noc(C)c1NC(=O)Nc1cccc2c1O[C@@H](CN(C)Cc1ccccc1)[C@H](C)CN([C@H](C)CO)C2=O
 : -11 | -9
- C[C@@H]1CN([C@@H](C)CO)C(=O)Cc2cc(NC(=O)c3ccncc3)ccc2O[C@@H]1CN(C)S(=O)(=O)c1ccc(F)cc1
 : 5 | 9
- O=C(C[C@@H]1CC[C@@H]2[C@H](COC[C@H](O)CN2C(=O)c2ccccc2F)O1)N1CCOCC1
 : 5 | 10
- CC(C)NC(=O)Nc1ccc2c(c1)C(=O)N([C@@H](C)CO)C[C@@H](C)[C@H](CN(C)Cc1ccc(C(F)(F)F)cc1)O2
 : 3 | 2
- C/C=C/c1ccc2c(c1)O[C@H](CN(C)C(=O)COC)[C@H](C)CN([C@@H](C)CO)S2(=O)=O
 : 30 | 16
- CCCC#Cc1ccc(CC[C@H]2O[C@H]3CC[C@H](CO)O[C@H]3C[C@H]2NC(=O)CN2CCOCC2)cc1
 : -2 | -1
- CC(C)OC(=O)N(C)C[C@@H]1OCc2cnnn2CCCC(=O)N([C@@H](C)CO)C[C@H]1C
 : 11&10 | 18&6
- COc1ccc(NC(=O)Nc2ccc3c(c2)C(=O)N([C@@H](C)CO)C[C@H](C)[C@@H](CN(C)S(=O)(=O)c2cccs2)O3)cc1
 : 2 | 8
- C[C@H](CO)N1C[C@H](C)[C@@H](CN(C)S(=O)(=O)c2ccc(Cl)cc2)Oc2ccc(NC(=O)Nc3ccc(F)cc3)cc2C1=O
 : 0 | 1
- C[C@H](CO)N1C[C@H](C)[C@H](CN(C)S(C)(=O)=O)Oc2ncc(C#CC3(O)CCCC3)cc2C1=O
 : 12 | 2
- COCC(=O)N1C[C@@H](C)[C@H](OC)CN(C)C(=O)c2ccc(NC(=O)Nc3ccccc3)cc2OC[C@@H]1C
 : 10 | 9
- C[C@H]1CN([C@@H](C)CO)C(=O)c2cc(NS(=O)(=O)c3ccc(F)cc3)ccc2O[C@H]1CN(C)C(=O)NC1CCCCC1
 : 6 | 11
- COc1ccc(S(=O)(=O)N(C)C[C@@H]2OCCCC[C@@H](C)Oc3ccc(NC(=O)Nc4ccc(C(F)(F)F)cc4)cc3C(=O)N([C@H](C)CO)C[C@@H]2C)cc1
 : 15 | 6
- C[C@@H]1CN([C@H](C)CO)C(=O)c2cc(-c3cccc(F)c3)cnc2O[C@H]1CN(C)Cc1cncnc1
 : 10 | 5
- O=C(c1ccc(F)cc1)N1CC(=O)N2[C@H](CO)[C@H](c3ccc(C#CC4CC4)cc3)[C@@H]2C1
 : -1 | 0
- C[C@H](CO)N1C[C@H](C)[C@@H](CN(C)Cc2ccc(Oc3ccccc3)cc2)Oc2ccc(NC(=O)c3ccncc3)cc2C1=O
 : 6 | 11
- C[C@H]1CN([C@@H](C)CO)C(=O)Cc2cc(NS(=O)(=O)c3ccc(Cl)cc3)ccc2O[C@H]1CN(C)S(=O)(=O)c1ccccc1
 : -11 | -4
- O=C(Nc1ccc(F)cc1)N1CCCCN2[C@H](CO)[C@@H](c3ccc(C#Cc4ccccc4)cc3)[C@@H]2C1
 : u | x
- CC(C)c1cn([C@H]2C[C@@H]3O[C@@H](CO)CC[C@@H]3O[C@@H]2CCc2ccc(-c3ccccc3)cc2)nn1
 : -2 | -14
- C[C@@H]1CN([C@H](C)CO)S(=O)(=O)c2ccc(/C=C/c3ccccc3)cc2O[C@@H]1CN(C)C(=O)c1ccc2c(c1)OCO2
 : u | x
- CN(C)CCCNC(=O)[C@H]1[C@H](CO)[C@H]2Cn3c(ccc(C4=CCCC4)c3=O)[C@@H]1N2Cc1cocn1
 : 17 | 2
- CC=Cc1ccc2n(c1=O)C[C@@H]1[C@@H](CO)[C@H](C(=O)OC)[C@H]2N1CC1CCCCC1 (mixture of isomers)
 : -9 | -5
- CNC(=O)C[C@@H]1CC[C@@H]2[C@H](COC[C@@H](O)CN2Cc2ccccc2F)O1
 : 17 | 5
- CCCC#Cc1cnc2c(c1)C(=O)N([C@H](C)CO)C[C@@H](C)[C@@H](CN(C)C(=O)Nc1ccccc1F)O2
 : -5 | -1

# More structures
# Results follow in this order: Vaccinia stage | Vaccinia stage Venus
- C[C@H](CO)N1C[C@H](C)[C@H](CN(C)Cc2ccc(C(=O)Nc3ccccc3N)cc2)Oc2ccc(NC(=O)Nc3ccccc3)cc2C1=O
 : 7 | 7
- C[C@H](CO)N1C[C@H](C)[C@@H](CN(C)Cc2ccc3c(c2)OCO3)Oc2c(NC(=O)C3CCOCC3)cccc2C1=O
 : 9 | 8
- C[C@@H]1CN([C@@H](C)CO)C(=O)c2cc(NC(=O)C3CCCCC3)ccc2O[C@@H](C)CCCCO[C@@H]1CN(C)CC1CCCCC1
 : u | x
- COc1ccc(NC(=O)N[C@H]2CC[C@@H](CCNC(=O)Cc3ccncc3)O[C@@H]2CO)cc1
 : 10 | 11
- O=C(NC1CCCC1)N1CC2(C1)[C@H](c1ccccc1)[C@@H](CO)N2CC1CCOCC1
 : 10 | 11
- C[C@@H](NC(=O)C[C@@H]1CC[C@H]2[C@H](COc3ccc(NC(=O)C4CCOCC4)cc3C(=O)N2C)O1)c1ccccc1
 : 7 | 9
- COc1ccc(CN(C)C[C@@H]2OCc3cnnn3CCCC(=O)N([C@@H](C)CO)C[C@@H]2C)cc1
 : 14 | 1
- C[C@@H]1CN([C@@H](C)CO)C(=O)c2cc(-c3ccc(C#N)cc3)cnc2O[C@H]1CN(C)CC1CCCCC1
 : u | x
- O=C(C[C@H]1C=C[C@@H](NC(=O)Cc2cccnc2)[C@@H](CO)O1)NCc1ccc2c(c1)OCO2
 : 9 | 11
- COc1ccc(OC(=O)N(C)C[C@@H]2OCc3cnnn3CCCC(=O)N([C@H](C)CO)C[C@H]2C)cc1
 : 10&3 | 8&3
- C[C@@H]1CN([C@@H](C)CO)S(=O)(=O)c2ccc(-c3ccccc3)cc2O[C@@H]1CN(C)Cc1ccccc1C(=O)O
 : 13&10 | 10&3
- CCC(=O)N1[C@H](C#N)[C@H](c2ccccc2-c2cccc(C)c2)[C@@H]1CO
 : 3 | -1
- CC(C)CC#Cc1ccc([C@@H]2[C@@H](CO)N3C(=O)CN(C(=O)Cc4ccccc4)C[C@@H]23)cc1
 : -2 | -14
- Cc1ccc(S(=O)(=O)N[C@H]2CC[C@H](CCNC(=O)C3CCC3)O[C@@H]2CO)cc1
 : -1 | 1
- C[C@@H]1CN([C@H](C)CO)C(=O)c2cc(-c3ccccc3F)cnc2O[C@@H]1CN(C)Cc1cccc(F)c1
 : -24 | -13
- CCC(=O)Nc1ccc2c(c1)OC[C@H](C)N(Cc1ccccn1)C[C@@H](C)[C@@H](OC)CN(C)C2=O
 : 4 | -3

# 4 structures from above, arranged by count of non-hydrogen atoms, highest first:
# Results follow in this order: Vaccinia stage | Vaccinia stage Venus
- C[C@@H]1CN([C@@H](C)CO)S(=O)(=O)c2ccc(-c3ccccc3)cc2O[C@@H]1CN(C)Cc1ccccc1C(=O)O
 : 13&10 | 10&3
- COc1ccc(OC(=O)N(C)C[C@@H]2OCc3cnnn3CCCC(=O)N([C@H](C)CO)C[C@H]2C)cc1
 : 10&3 | 8&3
- CC(C)CC#Cc1ccc([C@@H]2[C@@H](CO)N3C(=O)CN(C(=O)Cc4ccccc4)C[C@@H]23)cc1
 : -2 | -14
- Cc1ccc(S(=O)(=O)N[C@H]2CC[C@H](CCNC(=O)C3CCC3)O[C@@H]2CO)cc1
 : -1 | 1

# This is a subset, so the mix of outcomes need not match the whole.
